Shh pathway inh – Sonic Hedgehog pathway inhibition; 22,000 compounds, 2.1% hits; inhibition, % (concentration not given with the values); Shh-LIGHT2 Gli-luciferase reporter, 30 h;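 active = replicate mean of 65% or more; inconclusive = mean lower but half the replicates past it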;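 note: pathway switched on by Shh-conditioned medium diluted 1 in 25 in low serum; 100 nL library stock added to about 40 µL; 0% = median of neutral wells and 100% = positive control level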
MITF inhib – MITF inhibition | TRPM1 promoter luciferase, luminescence, 24 h | AID 2240 | 37,000 compounds, 0.28% hits | inhibition, % (concentration not given with the values);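 active = most replicates at 85% or more, or half of them and the mean; inconclusive = half reach 85% but not the mean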;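 note: human melanocyte line stably carrying TRPM1 promoter luciferase reporter; 0% = vehicle wells and 100% = a positive control; the first replicate is given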
PD-1 reversal – reversal of PD-1 mediated T-cell inhibition; primary human CD4 T cells, PD-L1 beads, CellTiter-Glo 96 h; activation, % (concentration not given with the values); 29,000 tested, under 10 active; AID 2316;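 active = replicate mean of 50% or more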;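 note: 0% = median vehicle wells and 100% = positive control; 100 nL library stock added to about 50 µL; numbers are from one replicate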
YB-1 expression – YB-1 expression inhibition; delta delta Cp (YB-1 minus CDIP) (no concentration beside the values); U2OS, qRT-PCR YB-1 vs CDIP delta delta Cp, 16 h; hits give high values; zero = DMSO, each unit about twofold; 30,000 compounds, 0.37% hits;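 active = delta delta Cp rounded down to an integer at or above 3, about 3 SD of DMSO wells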;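 note: higher means less YB-1 transcript or more CDIP transcript relative to DMSO; stock transfer was 100 nL into about 100 µL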
Active calls of the source: *.

The opening four compounds, to show the layout:
`C[C@H]1CN([C@@H](C)CO)C(=O)c2cc(NC(=O)Cc3cn(C)c4ccccc34)ccc2O[C@@H]1CN(C)C(=O)Nc1ccc(F)cc1` gave Shh pathway inh -8, MITF inhib 13, PD-1 reversal 0.8 and YB-1 expression 0.29.
Screening C[C@@H]1CN([C@@H](C)CO)C(=O)c2cc(NS(=O)(=O)c3cn(C)cn3)ccc2O[C@@H]1CN(C)Cc1ccc(C(=O)Nc2ccccc2N)cc1 returned MITF inhib -17, PD-1 reversal 1.0 and YB-1 expression 0.95.
Screening Cc1cc(-c2ccccc2)nc2oc3c(c12)NC(=O)CN(c1ccccc1)C3=O returned Shh pathway inh 38, MITF inhib -1, PD-1 reversal -4.4 and YB-1 expression 0.16.
CC(C(=O)Nc1ccc(Cl)c(Cl)c1)N(c1ccccc1)S(C)(=O)=O (stereo not drawn) was read as MITF inhib 14 and PD-1 reversal 0.0.

The list itself, repeating the preview:
`C[C@H]1CN([C@@H](C)CO)C(=O)c2cc(NC(=O)Cc3cn(C)c4ccccc34)ccc2O[C@@H]1CN(C)C(=O)Nc1ccc(F)cc1` gave Shh pathway inh -8, MITF inhib 13, PD-1 reversal 0.8 and YB-1 expression 0.29.
Screening C[C@@H]1CN([C@@H](C)CO)C(=O)c2cc(NS(=O)(=O)c3cn(C)cn3)ccc2O[C@@H]1CN(C)Cc1ccc(C(=O)Nc2ccccc2N)cc1 returned MITF inhib -17, PD-1 reversal 1.0 and YB-1 expression 0.95.
Screening Cc1cc(-c2ccccc2)nc2oc3c(c12)NC(=O)CN(c1ccccc1)C3=O returned Shh pathway inh 38, MITF inhib -1, PD-1 reversal -4.4 and YB-1 expression 0.16.
CC(C(=O)Nc1ccc(Cl)c(Cl)c1)N(c1ccccc1)S(C)(=O)=O (stereo not drawn) was read as MITF inhib 14 and PD-1 reversal 0.0.
`O=C(O)c1cc(C23CC4CC(CC(C4)C2)C3)nc2ccc(Br)cc12` gave Shh pathway inh -9, MITF inhib -1, PD-1 reversal 0.0 and YB-1 expression 0.12.
For C=C1C(=O)O[C@H]2C1CCC(=C)[C@@H]1C[C@H](OC(=O)C=C(C)C)C(=C)[C@@H]12 (stereo partly drawn) the results were Shh pathway inh 7, MITF inhib 12, PD-1 reversal -5.3 and YB-1 expression -0.99.
Screening CC(C)NC(=O)Nc1ccc2c(c1)CC(=O)N([C@H](C)CO)C[C@H](C)[C@H](CN(C)S(=O)(=O)c1ccc(Cl)cc1)O2 returned MITF inhib -15 and YB-1 expression 0.057.
Cc1ccc(S(=O)(=O)N(C)C[C@@H]2Oc3ccc(NC(=O)Nc4ccc(C(F)(F)F)cc4)cc3CC(=O)N([C@H](C)CO)C[C@H]2C)cc1 was read as MITF inhib 45, PD-1 reversal 2.2 and YB-1 expression -0.36.
For C[C@@H]1CN([C@@H](C)CO)C(=O)c2cc(NC(=O)Nc3ccc4c(c3)OCO4)ccc2O[C@H]1CN(C)Cc1ccc(-c2ccccc2)cc1 the results were MITF inhib 20, PD-1 reversal 1.7 and YB-1 expression 0.067.
For Cc1cc(Sc2ccc(Cl)cc2)nc(-c2ccccn2)n1 the results were Shh pathway inh -9, MITF inhib 3, PD-1 reversal -3.0 and YB-1 expression 0.24.
`COc1ccc(C(=O)Nn2c(C)nnc2-n2nc(C)cc2C)cc1OC` gave Shh pathway inh -8, MITF inhib 15, PD-1 reversal 0.8 and YB-1 expression 0.18.
`Ic1cccc(CSc2nnc(-c3ccncc3)o2)c1` gave Shh pathway inh 11, MITF inhib -65, PD-1 reversal 2.3 and YB-1 expression 1.1.
Screening C[C@@H]1CN([C@@H](C)CO)C(=O)c2cccc(NC(=O)Nc3ccc(C(F)(F)F)cc3)c2O[C@@H]1CN(C)S(=O)(=O)c1ccc(F)cc1 returned Shh pathway inh -6, MITF inhib 14, PD-1 reversal -5.7 and YB-1 expression -0.046.
`Cc1ccc(S(=O)(=O)Nc2ccc3c(c2)CC(=O)N([C@@H](C)CO)C[C@@H](C)[C@@H](CN(C)S(=O)(=O)c2ccccc2)O3)cc1` gave Shh pathway inh inconclusive, MITF inhib -7, PD-1 reversal 0.2 and YB-1 expression -0.41.
`C[C@H]1CN([C@@H](C)CO)C(=O)c2cc(NC(=O)Nc3cccc4ccccc34)ccc2O[C@@H]1CN(C)S(=O)(=O)c1ccc(Cl)cc1` gave Shh pathway inh 18, MITF inhib 22, PD-1 reversal 0.4 and YB-1 expression -0.19.
`CC(C)(C)NC(=O)[C@@H]1C[C@@H]2CCCC[C@@H]2CN1C[C@@H](O)[C@H](Cc1ccccc1)NC(=O)[C@H](CC(N)=O)NC(=O)c1ccc2ccccc2n1` gave Shh pathway inh -33, MITF inhib -14 and YB-1 expression -0.19.
`C[C@H]1CN([C@@H](C)CO)C(=O)c2cc(NC(=O)CCN3CCOCC3)ccc2O[C@@H]1CN(C)C(=O)Nc1ccc2c(c1)OCO2` gave MITF inhib 2, PD-1 reversal 7.3 and YB-1 expression 1.6.
For C[C@H]1CN([C@@H](C)CO)C(=O)c2cc(NC(=O)CCC(F)(F)F)ccc2O[C@@H]1CN(C)S(=O)(=O)c1ccc(Cl)cc1 the results were Shh pathway inh -20, MITF inhib -3, PD-1 reversal 0.8 and YB-1 expression -0.12.
For O=C(NC(=O)c1cnccc1C(F)(F)F)Nc1ccc(Cl)cc1Cl the results were Shh pathway inh 0, MITF inhib -8, PD-1 reversal 0.6 and YB-1 expression -0.09.
Screening Cc1ccc(S(=O)(=O)Nc2ccc3c(c2)OCCO3)c(C)c1NS(C)(=O)=O returned MITF inhib -17 and PD-1 reversal 1.5.
For C[C@H]1CN([C@@H](C)CO)C(=O)c2cccc(NS(C)(=O)=O)c2O[C@H]1CN(C)C(=O)Nc1cccc2ccccc12 the results were Shh pathway inh -16, MITF inhib 4, PD-1 reversal -1.3 and YB-1 expression 0.19.
Screening COC(=O)c1ccccc1NC(=O)CN1C(=O)c2cccc3cccc1c23 returned MITF inhib 16 and PD-1 reversal -1.0.
`CC(C)N(Cc1nc(-c2ccccc2)no1)C(=O)c1ccc(Br)o1` gave MITF inhib 13 and PD-1 reversal 0.0.
For C[C@@H]1CN([C@H](C)CO)C(=O)c2cc(NC(=O)Nc3ccc(F)cc3)ccc2O[C@@H]1CN(C)C the results were MITF inhib -1, PD-1 reversal -0.3 and YB-1 expression 0.0083.
For O=C(O)c1cc2ncc(CCO)cn2n1 the results were MITF inhib -19 and PD-1 reversal 1.6.
Screening COc1ccc(NC(=O)Nc2ccc3c(c2)CC(=O)N([C@H](C)CO)C[C@H](C)[C@H](CN(C)S(=O)(=O)c2cccs2)O3)cc1 returned Shh pathway inh 3, MITF inhib -11, PD-1 reversal 2.0 and YB-1 expression 0.079.
Screening O=C(O)c1cccc(S(=O)(=O)NCC2CCCO2)c1 (stereo not drawn) returned MITF inhib -2 and PD-1 reversal 1.3.
For CCn1c(SCC(=O)Nc2cc(Cl)ccc2Cl)nnc1-c1ccc(Cl)cc1 the results were MITF inhib 6 and PD-1 reversal -1.2.
Screening Cc1cccc(NC(=O)c2cc(NC(=O)CCC(=O)O)ccc2N2CCOCC2)c1 returned MITF inhib -1 and PD-1 reversal 3.4.
For COC(=O)c1sc(NC(=S)Nc2c(C)nn(Cc3c(F)c(F)c(F)c(F)c3F)c2C)c(C(=O)OC)c1C the results were MITF inhib -27 and PD-1 reversal -0.1.
For COc1ccc(NC(=O)N(C)C[C@@H]2Oc3c(NS(=O)(=O)c4ccc(C)cc4)cccc3C(=O)N([C@H](C)CO)C[C@H]2C)cc1 the results were Shh pathway inh 5, MITF inhib -9, PD-1 reversal 2.5 and YB-1 expression -0.11.
`COc1ccc(C(=O)N(Cc2nc(-c3ccccc3)no2)C(C)C)cc1OC` gave MITF inhib -4 and PD-1 reversal -0.2.
`C[C@@H]1CN([C@@H](C)CO)C(=O)Cc2cc(NC(=O)Cc3ccccc3)ccc2O[C@@H]1CN(C)Cc1ccc(-c2ccccc2)cc1` gave Shh pathway inh 14, MITF inhib 31 and YB-1 expression -0.12.
Screening COc1ccc([N+](=O)[O-])cc1N(CC(=O)N(C)C)S(C)(=O)=O returned MITF inhib -4 and PD-1 reversal 0.5.
Screening Cc1ccc(NC(=O)COc2c(C)cc(Cl)cc2Cl)c([N+](=O)[O-])c1 returned MITF inhib -17 and PD-1 reversal 1.8.
`O=C(NCC(c1ccccc1)c1c[nH]c2ccccc12)Nc1ccc(Cl)cc1` (stereo not drawn) gave MITF inhib inconclusive and PD-1 reversal -1.1.
`Cc1cccc(Nc2ccncc2S(=O)(=O)NC(=O)NC(C)C)c1` gave Shh pathway inh -72, MITF inhib -2 and YB-1 expression -0.11.
For COc1ccc(Nc2nccc(NCCO)n2)cc1 the results were Shh pathway inh 25, MITF inhib -13, PD-1 reversal 4.2 and YB-1 expression -0.22.
`C[C@@H]1CN([C@H](C)CO)C(=O)c2cc(NC(=O)NC3CCCCC3)ccc2O[C@@H]1CN(C)CC1CCCCC1` gave MITF inhib -1, PD-1 reversal 0.6 and YB-1 expression -0.29.
C[C@H](CO)N1C[C@H](C)[C@H](CN(C)Cc2ccc(-c3ccccc3)cc2)Oc2ccc(N(C)C)cc2CC1=O was read as Shh pathway inh -17, MITF inhib 4, PD-1 reversal -2.3 and YB-1 expression 0.37.
C[C@H](CO)N1C[C@H](C)[C@H](CN(C)Cc2ccc(Oc3ccccc3)cc2)Oc2ccc(NC(=O)CCN3CCOCC3)cc2CC1=O was read as Shh pathway inh 39, MITF inhib -5, PD-1 reversal -0.3 and YB-1 expression 0.061.
`Cc1cc2nc(SCC(=O)O)nc(C)c2cc1C` gave MITF inhib -6 and PD-1 reversal 1.8.
For C[C@H]1CN([C@@H](C)CO)C(=O)c2cccc(NC(=O)Nc3ccc(C(F)(F)F)cc3)c2O[C@@H]1CN(C)CC1CCCCC1 the results were Shh pathway inh 18, MITF inhib 29 and YB-1 expression -0.077.
`COC(=O)C1=CN(C23CC4CC(CC(C4)C2)C3)C=C(C(=O)OC)C1c1cccc(OC)c1` gave Shh pathway inh -4, MITF inhib 8, PD-1 reversal 0.4 and YB-1 expression -0.11.
For O=C(Nc1ccncc1)Nc1c(Cl)cc(Cl)cc1Cl the results were Shh pathway inh -8, MITF inhib -4, PD-1 reversal -3.1 and YB-1 expression 0.15.
`COc1ccc(Cl)cc1N(CC(=O)Nc1ccccc1SC)S(C)(=O)=O` gave MITF inhib -4 and PD-1 reversal -1.5.
Screening Cc1noc(C)c1NC(=O)Nc1ccc2c(c1)C(=O)N([C@H](C)CO)C[C@@H](C)[C@@H](CN(C)C(=O)Nc1ccc3c(c1)OCO3)O2 returned Shh pathway inh -79, MITF inhib -8 and YB-1 expression -0.098.
C[C@@H]1CN([C@@H](C)CO)C(=O)Cc2cc(NC(=O)Cc3cn(C)c4ccccc34)ccc2O[C@@H]1CN(C)CC1CC1 was read as Shh pathway inh -7, MITF inhib 10, PD-1 reversal 1.2 and YB-1 expression 0.1.
`Cc1noc(C)c1S(=O)(=O)N(C)C[C@H]1Oc2ccc(NS(=O)(=O)c3cn(C)cn3)cc2C(=O)N([C@H](C)CO)C[C@H]1C` gave MITF inhib -11, PD-1 reversal 1.3 and YB-1 expression -0.34.
Screening O=C(O)c1cc(NS(=O)(=O)c2cccc3cccnc23)ccc1O returned MITF inhib -7 and PD-1 reversal 1.4.
`O=C(Nc1ccccc1C(=O)NCCOc1ccccc1)c1ccccc1I` gave MITF inhib 14 and PD-1 reversal -0.1.
For C[C@H]1CN([C@@H](C)CO)C(=O)c2cc(NC(=O)C3CCCCC3)ccc2O[C@@H]1CN(C)Cc1ccc(Cl)c(Cl)c1 the results were Shh pathway inh -8, MITF inhib 58, PD-1 reversal -5.1 and YB-1 expression 0.12.
Cc1ccc(S(=O)(=O)N(C)C[C@@H]2OCCCC[C@@H](C)Oc3ccc(NC(=O)Cc4ccccc4)cc3C(=O)N([C@H](C)CO)C[C@@H]2C)cc1 was read as Shh pathway inh 31, MITF inhib 27, PD-1 reversal -1.4 and YB-1 expression -0.054.
`C[C@H]1CN([C@@H](C)CO)C(=O)Cc2cc(NC(=O)C3CCCCC3)ccc2O[C@@H]1CN(C)Cc1ccc(Cl)c(Cl)c1` gave Shh pathway inh -15, MITF inhib 25, PD-1 reversal 0.0 and YB-1 expression -0.043.
For COc1ccc(CN(C)C[C@@H]2OCCCC[C@@H](C)Oc3ccc(NS(=O)(=O)c4ccc(OC)cc4)cc3C(=O)N([C@H](C)CO)C[C@@H]2C)cc1 the results were MITF inhib -7, PD-1 reversal 0.7 and YB-1 expression 0.33.
Screening C[C@H](CO)N1C[C@H](C)[C@H](CN(C)Cc2ccc(Oc3ccccc3)cc2)Oc2c(NS(=O)(=O)c3cccs3)cccc2C1=O returned Shh pathway inh -4, MITF inhib 5, PD-1 reversal -0.7 and YB-1 expression 0.094.
S=c1nc[nH]c2c1sc1nc(N3CCOCC3)c3c(c12)CCCC3 was read as Shh pathway inh 32, MITF inhib -43, PD-1 reversal -0.6 and YB-1 expression -0.37.
For CC(=O)Nc1cccc(-c2nnc(SCC(=O)Nc3ccccc3F)n2C)c1 the results were MITF inhib -11 and PD-1 reversal 3.9.
`Cc1nc2nc[nH]n2c(=O)c1NS(=O)(=O)c1ccc2c(c1)CCCC2` gave MITF inhib 3 and PD-1 reversal 1.9.

An excerpt, so the mix of outcomes need not match the whole.
